D2 PAM – human D2 receptor positive allosteric modulation. DiscoveRx D2 beta-arrestin cells, luminescence, 90 min; 100% = 57 uM dopamine signal. P14416. AID 624464. 0.23% of 360,000 active. potentiation, % (concentration not given with the values); active = potentiation of 50% or more; inconclusive = 30% to 50%; inactive = 30% or less;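 note: compound concentration not given in the record; tested on top of an EC20 dose of dopamine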
Target sequence (P14416 whole entry, looked up): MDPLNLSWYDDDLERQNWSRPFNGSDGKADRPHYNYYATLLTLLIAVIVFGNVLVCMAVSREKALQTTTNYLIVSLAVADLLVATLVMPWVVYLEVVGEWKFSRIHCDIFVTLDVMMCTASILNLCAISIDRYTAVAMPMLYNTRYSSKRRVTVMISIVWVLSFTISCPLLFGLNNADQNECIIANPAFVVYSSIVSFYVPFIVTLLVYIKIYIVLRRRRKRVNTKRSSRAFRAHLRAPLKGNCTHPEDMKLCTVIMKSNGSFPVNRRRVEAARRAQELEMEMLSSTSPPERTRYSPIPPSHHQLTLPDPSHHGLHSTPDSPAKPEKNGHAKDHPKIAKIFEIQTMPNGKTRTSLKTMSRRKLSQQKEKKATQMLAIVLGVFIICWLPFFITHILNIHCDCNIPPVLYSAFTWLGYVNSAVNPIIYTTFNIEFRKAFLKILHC
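PathHunter D2 cells, attached overnight at 37 deg C, received compound in DMSO plus dopamine at EC20 (50 nM final) for 90 min at 37 deg C. Beta-arrestin recruitment was read as luminescence after 1 h with detection reagent at ambient temperature.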
TRPML1 ag – activates the human TRPML1 channel; Q9GZU1; TRPML1-expressing cells, Ca2+ dye fluorescence, FDSS; host cell line not named in the record; reference of the full effect not given here; activation, % (test concentration not listed); 0.12% of 410,000 active; AID 624414; in the data active = activation above about 50%; inconclusive = about 30% to 50%; inactive = below about 30%; note: 0% is about no effect; the text of the record puts the active cut at 80%
Target sequence (Q9GZU1 whole entry, looked up): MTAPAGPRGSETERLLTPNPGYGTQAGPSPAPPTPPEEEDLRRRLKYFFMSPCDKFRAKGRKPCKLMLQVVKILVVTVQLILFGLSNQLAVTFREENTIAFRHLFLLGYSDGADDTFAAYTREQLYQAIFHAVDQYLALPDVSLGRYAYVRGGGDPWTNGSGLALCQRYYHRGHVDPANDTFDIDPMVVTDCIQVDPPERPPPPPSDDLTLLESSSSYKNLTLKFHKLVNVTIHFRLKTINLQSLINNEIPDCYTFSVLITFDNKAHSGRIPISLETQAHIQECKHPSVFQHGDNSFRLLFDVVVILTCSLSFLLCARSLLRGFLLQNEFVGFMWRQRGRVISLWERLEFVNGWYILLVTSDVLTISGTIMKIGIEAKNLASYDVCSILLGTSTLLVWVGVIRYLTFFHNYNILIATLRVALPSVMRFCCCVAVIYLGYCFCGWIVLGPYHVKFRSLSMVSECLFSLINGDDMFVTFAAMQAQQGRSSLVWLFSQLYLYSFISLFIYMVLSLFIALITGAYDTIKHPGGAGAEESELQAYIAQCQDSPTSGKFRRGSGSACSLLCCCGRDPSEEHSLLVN
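Cells: TRPML1-DL, 1X Tet inducer, ~16 h at 37 degrees C/5% CO2. Dye: ABD Ca8 no-wash + quencher, 45-90 min RT. Read: 10 s baseline, compound add, 110 s agonist phase; 54-4 EC80 (4uM final), 110 s antagonist phase.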
Six1-Eya2 blk – Six1/Eya2 interaction inhibition; activity change, % (test concentration not listed); 0.56% of 360,000 active; AlphaScreen GST-Six1/His-Eya2 binding, biochemical; stronger effect = lower value; control for the full effect not named in the record; Q15475+O00167; in the data active = activity change below about -65%; inconclusive = about -30% to -65%; inactive = above about -30%; note: % is set by controls: 0 for no effect and ±100 for the full control effect; compound concentration not given in the record
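AlphaScreen luminescence read after one hour at 37 °C in darkness. Pin-transferred compounds met GST-Six1 and His-Eya2 protein (5X stock 250 nM/500 nM) plus glutathione donor and Ni-chelate acceptor beads (5X, 50 ug/mL).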
D2 ag – human D2 receptor agonism in beta-arrestin assay; P14416; AID 624465; activation, % (no concentration beside the values); 0.084% of 360,000 active; DiscoveRx PathHunter D2 beta-arrestin, luminescence, 90 min; 100% = 57 uM dopamine signal; in the data active = activation above about 40%; inconclusive = about 15% to 40%; inactive = below about 15%; note: compound concentration not given in the record; the text of the record calls up to 30% inactive
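Agonist mode: compounds alone added to overnight-plated D2 PathHunter cells for 90 min at 37 C, with 57 uM final dopamine (EC100) defining full response. Beta-arrestin recruitment detected by chemiluminescent reagent, read after 1 h at ambient temperature.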
PINK1 modulator – PINK1 expression modulation. PINK1 immunofluorescence, high-content cytometry, 24 h. AID 624263. Potency, µM (highest dose often 76.6 µM), for the others: at the highest dose activation (PINK1 increase), hits mostly activators. 0.2% of 410,000 active; active = well fitted activation curve with a large enough effect; inconclusive = small, poorly fitted or top-dose-only effect; inactive = flat fitted curve, though single readings scatter; cell line not stated here;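 note: potency is the fitted concentration of half-maximal effect; % of control where 0% means no effect; nearly all actives have a fitted effect of over 65% in size; a mitochondrial uncoupler was the plate control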
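Decision-based qHTS: stable cells, 24 h exposure to five compound concentrations, CCCP as control. Fixed cells stained for PINK1 plus nuclear, mitochondrial and cell markers, cytometer read.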
CtBP-E1A inh – blocks the CtBP interaction with E1A | AlphaScreen GST-E1A/His-CtBP binding, 1536-well; stronger effect = lower value; control for the full effect not named in the record | activity change, % (concentration not given with the values) | 0.49% of 340,000 active | AID 651724; in the data active means activity change below about -65%; inconclusive means about -30% to -65%; inactive means above about -30%; note: % is set by controls: 0 for no effect and ±100 for the full control effect
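Protein mix (5X: 125 nM each GST-E1A, His-CtBP) was incubated with pinned compound 2 h at 37 deg C in dark, in 50 mM Tris pH 8.0 buffer with 300 mM NaCl. Glutathione donor and nickel acceptor beads followed; AlphaScreen signal read after 1 h.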
Starred values were filed as active, the others as inactive; ? = inconclusive; · = not tested or not shown; & = joins results of further samples; [ ] = dose if it differs, or a comment.

SMILES	D2 PAM	TRPML1 ag	Six1-Eya2 blk	D2 ag	PINK1 modulator	CtBP-E1A inh
CCOC(=O)c1cc(-c2ccccc2)sc1NC(=S)Nc1cc(C)ccn1	-10	-1.2	-1	-2.7	?	4
COc1ccc(-n2c(CN3CCN(c4ccccc4)CC3)nc3ccc([N+](=O)[O-])cc3c2=O)c(OC)c1	-13	0.2	-21	6.7	0.9%	-27
C/C(=N\NC(=O)CSCc1ccc(Cl)cc1)c1ccc(NC(=O)c2ccccc2)cc1	-9	-1.2	-4	-1.2	9.0%	1
CN(C)CCSc1nc(-c2ccccc2)nc2c1CCCC2	-14	-0.2	-27	1.3	1.6%	-2
O=C(Nc1ccc(O)c(C(=O)O)c1)c1ccc2c(c1)C(=O)N(CC1CCCO1)C2=O (stereo unspecified)	-13	0.5	-16	-2.8	?	-2
CN(CC(=O)Nc1ccccc1Cl)C(=O)COC(=O)c1nc(Cl)c(Cl)c(Cl)c1Cl	-9	0.2	-14	-1.0	-1.4%	6
Cc1ccc(S(=O)(=O)N(C)C[C@H]2Oc3c(NC(=O)Nc4cccc5ccccc45)cccc3C(=O)N([C@@H](C)CO)C[C@@H]2C)cc1	2	-0.8	-71*	1.7	7.3%	-75*
CCOC(=O)N1CCN(c2c(NCCc3ccc(OCC)c(OCC)c3)c(=O)c2=O)CC1	-10	0.0	-4	-3.1	6.6%[38.3 µM]	-3
O=C(O)c1cccc2c(/C=N/Nc3ccccn3)c[nH]c12	-7	-0.8	6	-2.5	-0.2%	10
CCN1CCN(C(c2ccccc2)c2nnnn2C(C)(C)C)CC1 (stereo unspecified)	·	-0.4	-2	·	0.4%	2
Cc1ccc(S(=O)(=O)N/N=C2/CCCCC2C2CCCCC2)cc1[N+](=O)[O-] (stereo unspecified)	-2	1.4	2	-2.4	1.7%	0
Cc1ccc(/C=N/n2c(C)nnc2C)cc1	-6	0.9	11	-2.9	4.5%	5
CCOC(=O)/C=C/C(=O)OCC(=O)Nc1cccc(Cl)c1Cl	-3	-0.1	2	2.3	4.1%	-25
Cc1ccc(NC(=O)CSc2nc3ccccc3c3nc(CCc4c(C)n[nH]c4C)nn23)cc1F	-3	0.7	-6	1.1	25%[38.3 µM]	1
Cc1cccc2cc(C(c3nnnn3C3CCCC3)N3CCOCC3)c(=O)[nH]c12 (stereo unspecified)	-4	-0.8	1	-1.8	-0.3%	-3
COCCNc1nc(NCCCN2CCCC2=O)c2sccc2n1	-6	-0.7	-3	-4.1	0.4%	5
Cc1ccc(NC(=O)Cn2nnc(C(=O)NCCc3ccccc3)c2N)cc1Cl	-6	-0.1&0.6	-1	-8.6	1.6%&21%	7
COc1ccc(CN(C)C(=O)c2cccc(C(=O)N(C)Cc3ccc(OC)cc3)c2)cc1	-3	-0.3	-3	0.4	0.4%	·
COc1ccc(N2C(=NC(=O)C3CCCCC3)SC3CS(=O)(=O)CC32)cc1Cl (stereo unspecified)	-2	0.5	-1	2.8	1.5%	0
CC(CNC(=O)c1cc(Cl)ccc1[N+](=O)[O-])NC(=O)c1cc(Cl)ccc1[N+](=O)[O-] (stereo unspecified)	-9	-1.1	1	-3.1	-1.2%	5
Cc1ccc(S(=O)(=O)NCCC(=O)OCC(=O)N(Cc2ccccc2)C(C)(C)C)cc1	-69	4.9	0	-2.3	-1.1%	1
Cc1ccc(OCCN(C)C(=O)CC2C(=O)NCCN2CC(C)(C)C)cc1 (stereo unspecified)	4	-0.4	-12	2.6	-1.4%	4
COc1ccc(NC(=O)c2c(C)oc3c2CCCC3)cc1	-7	4.6	-4	-0.9	-1.7%[38.3 µM]	22
Cc1cc2nc3s/c(=C/c4ccc(-c5ccccc5C(=O)O)o4)c(=O)n3c2cc1C	-11	11	?	-7.0	13%	·
CCc1nnc(NC(=O)CSc2nnnn2C)s1	-8	-0.7	29	-3.2	-1.9%	48

4 entries out of the list above, sorted by the value under PINK1 modulator, rising:
| Compound | PINK1 modulator |
| --- | --- |
| COc1ccc(CN(C)C(=O)c2cccc(C(=O)N(C)Cc3ccc(OC)cc3)c2)cc1 | 0.4% |
| CN(C)CCSc1nc(-c2ccccc2)nc2c1CCCC2 | 1.6% |
| Cc1ccc(S(=O)(=O)N/N=C2/CCCCC2C2CCCCC2)cc1[N+](=O)[O-] (stereo unspecified) | 1.7% |
| Cc1cc2nc3s/c(=C/c4ccc(-c5ccccc5C(=O)O)o4)c(=O)n3c2cc1C | 13% |

Later entries:
SMILES	D2 PAM	TRPML1 ag	Six1-Eya2 blk	D2 ag	PINK1 modulator	CtBP-E1A inh
Cc1ccc(S(=O)(=O)N2C[C@H]3C(=O)C[C@@H](c4ccccc4)N(S(=O)(=O)c4ccc(C)cc4)[C@H]3C[C@H]2c2ccccc2)cc1	3	2.2	1	-9.7	2.5%	1
CCCN(C(=O)Cn1nc(C)c([N+](=O)[O-])c1C)c1c(N)n(Cc2ccccc2)c(=O)[nH]c1=O	-13	-0.3	7	-3.5	1.2%	8
CCSc1nnc(NC(=O)C(CC)Oc2ccccc2)s1 (stereo unspecified)	1	0.5	2	-3.1	?	-2
Cc1cccc(N2C(=NC(=O)c3ccccc3)SC3CS(=O)(=O)CC32)c1 (stereo unspecified)	-10	-0.5	4	-1.4	1.6%	0
Clc1ccc(OCCCc2nc(-c3cccnc3)no2)c(Cl)c1	-1	2.8	16	-1.0	-1.0%[38.3 µM]	26
CCCC(=O)C1=C(O)C(C(=O)OC)C(C)(C)CC1=Nc1ccc(Br)cc1 (stereo unspecified)	-3	3.4	-10	-3.1	0.9%	-19
C=CCN1C(=O)/C(=C2/Sc3ccccc3N2C)SC1=Nc1ccccc1C	-22	-0.1	-4	2.7	16%	0
Cc1ccc(CCNC(=O)c2ccc3nc4ccc(Cl)cc4c(=O)n3c2)cc1	-5	0.6	0	-2.7	0.0%	3
CCOC(=O)CSc1nsc(SCC(=O)OCC)c1C#N	-11	2.4	4	-2.2	0.9%	3
COC(=O)c1ccccc1NC(=O)c1onc(C)c1Cl	-11	1.0	-6	-2.9	0.0%	2
CCCNC(=O)c1onc(CSc2ccc(Cl)cc2)c1C(=O)NC(C)C	-2	3.5	14	-0.7	1.7%	-18
C/C(=N\N1CCN(c2ccccc2)CC1)c1ccco1	-7	-0.6	-24	-0.6	0.5%	-2
CCOC(=O)c1c(NC(=O)C(C)N2CCN(S(=O)(=O)c3cccs3)CC2)sc2c1CCC(C)C2 (stereo unspecified)	7	-0.4	9	-0.7	0.5%	8
CCOC(=O)c1csc(COc2ccc(OC)cc2)n1	-6	0.2	2	1.5	2.2%	6
CN(C)CCNC(=O)C1CC(=O)N(c2ccc(F)c(Cl)c2)C1 (stereo unspecified)	4	0.9	2	0.6	7.6%[38.3 µM]	1
Cc1cc(C)cc(NC(N)=S)c1	-4	-0.5	12	-2.8	2.0%	1
O=C1C(C=Nc2ccccc2O)=C(O)c2ccccc21	5	1.4	-20	0.4	?	?
O=C(COc1ccccc1Cl)Nc1ccc(N2CCCC2)cc1	-6	-0.1	-29	-3.6	4.9%	-26
C[C@H](NC(=O)N1CCn2c1nc1ccccc12)C(=O)NC1CCCCC1	-7	-1.2	0	4.2	-1.7%	0
COc1cccc(-c2nn(-c3ccccc3)cc2CN(C)C(C)c2ccon2)c1 (stereo unspecified)	-10	3.6	9	0.2	2.8%	-7
Cc1ccc(S(=O)(=O)N2CCN(C(=O)CN3C(=O)NC(C)(c4ccc(Cl)cc4)C3=O)CC2)c(C)c1 (stereo unspecified)	-6	1.1	1	-3.0	1.4%	·
Cc1ccnc(NC(=O)CN2C(=O)c3ccccc3S2(=O)=O)c1	-6	-0.6	-4	-2.1	3.3%	-7
O=C(CCSc1ccccc1)N1CCN(C(=O)c2ccco2)CC1	2	0.6	-1	-2.0	1.9%[38.3 µM]	0
CC1CCC(NC(=O)c2cccc(S(=O)(=O)N3CCN(C)CC3)c2)CC1 (stereo unspecified)	1	-0.6	-3	-1.4	1.1%	6
O=C(CC(=O)NC1CCCCC1)N/N=C/c1ccc(Cl)cc1	-8	-0.9	7	-0.6	1.9%	-2

One compound at a time (already shown). Order of screens: D2 PAM	TRPML1 ag	Six1-Eya2 blk	D2 ag	PINK1 modulator	CtBP-E1A inh
O=C(CC(=O)NC1CCCCC1)N/N=C/c1ccc(Cl)cc1 in the list: -8	-0.9	7	-0.6	1.9%	-2
CCOC(=O)c1csc(COc2ccc(OC)cc2)n1 in the list: -6	0.2	2	1.5	2.2%	6
CCOC(=O)CSc1nsc(SCC(=O)OCC)c1C#N in the list: -11	2.4	4	-2.2	0.9%	3

Next structures.
SMILES	D2 PAM	TRPML1 ag	Six1-Eya2 blk	D2 ag	PINK1 modulator	CtBP-E1A inh
Cc1c(CCOC(=O)CC23CC4CC(CC(C)(C4)C2)C3)sc[n+]1Cc1ccc([N+](=O)[O-])cc1	-9&-11	-0.8&0.5	-10&-11	-5.4&-4.5	3.7%&-1.0%	-4
Cc1cccc(NC(=O)CSc2nnnn2C2CCCC2)c1	-9	1.1	-16	-3.5	-0.8%	-7
CCn1c(=O)c(C(=O)Nc2ccccc2)c(O)c2ccccc21	-16	0.0	17	-3.8	15%	-10
CC(C(=O)Nc1ncc([N+](=O)[O-])s1)N1C(=O)c2ccccc2S1(=O)=O (stereo unspecified)	-8	0.1	3	-3.9	-2.5%	-1
CC(=O)Nc1ccc2c(c1)N(S(=O)(=O)c1cccs1)CCC2	6	-0.8	-2	-0.2	-0.2%	0
O=C(/C=C/c1ccco1)Nc1ccc(-c2nc3ccccc3[nH]2)cc1	24	0.8	-3	-1.3	?	5
CCOC(=O)c1c(C)c(C(=O)NCCN2CCOCC2)c(C)n1CC	-17	-0.1	0	-2.7	1.7%[38.3 µM]	4
CC(C)(C)NC(=O)C(c1ccco1)N(C(=O)Cn1nnc(-c2ccc(F)cc2)n1)c1cccc(F)c1 (stereo unspecified)	-9	-0.1	2	1.4	13µM*	-2
COc1ccc(Br)cc1-c1noc(-c2ccccc2)n1	-12	1.8	22	-5.8	8.2%	3
C(=C\c1ccccc1)/CN1CCN(C(c2nnnn2Cc2ccccc2)C2CC2)CC1 (stereo unspecified)	-13	-0.7	-16	2.8	0.9%	-14
CCCc1cc(=O)[nH]c(SCC(=O)Nc2ccc(S(=O)(=O)N3CCCC3)cc2)n1	0	0.2	2	-1.7	-3.7%	0
COc1ccc2oc(C(=O)OCC(=O)N(C)C3CCCCC3)c(C)c2c1	0	2.1	-4	2.8	-0.7%	6
COc1ccccc1OCc1nnc(SCC(=O)Nc2nnc(C3CC3)s2)n1C	-7	0.5	1	-3.5	-2.0%	0
N/C(=N\OC(=O)COc1ccc(Cl)cc1Cl)c1cccnc1	-11	2.1	7	0.3	14%	2
Nc1ccc(C(=O)N/N=C/c2sc(N3CCOCC3)nc2-c2ccccc2)cc1	-5	-0.8	-30	1.7	5.2%	-5
CCN1CC(CN(C)Cc2nc(-c3ccc(OC)c4ccccc34)oc2C)CC1=O (stereo unspecified)	-5	0.6	-6	2.2	0.7%	5
CNC(=O)COC(=O)c1ccc(NC(=O)CC#N)cc1	19	-0.6	4	-4.3	-0.2%	1
COC(=O)C(=O)C1CCc2c(Cl)cc(OC)c(OC)c2C1=O (stereo unspecified)	-4	0.1	3	7.3	2.3%	0

Compound activity: PubChem BioAssay, National Center for Advancing Translational Sciences (NCATS)
